Screening results from PubChem BioAssay.
Env fusion inh = blocks HIV Env-driven cell-cell fusion; inhibition, % at 12.3 µM; HeLa-JRFL Env/CEM21 cell fusion, luciferase; 360,000 compounds, 1.1% hits; AID 651610;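 active = mean replicate inhibition score of at least 50 and every replicate individually at or above 50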;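 note: 0% = plate neutral controls and 100% = maraviroc near 300 nM; one replicate is shown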
MT1-MMP act inh = blocks activation of human MT1-MMP | P50281 | HT1080 RFP-PRO-GFP cells, GFP/RFP ratio fluorescence, overnight; percent of plate control window, DMSO zero | GFP/RFP ratio change, % at 20 µM | 360,000 compounds, 0.061% hits | AID 651647;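 active = GFP/RFP ratio change of at least 30% with cell ATP level not reduced by more than half and red fluorescence within 50% of control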; note: strong numbers were not always called active
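Material: RFP-PRO-GFP reporter HT1080 cells. Dosing: single-point 20 µM compound, 1% DMSO. Controls: DMSO and RFP-L50D-GFP cell wells. Timing: cells overnight before dosing, compound overnight, 37 °C, 5% CO2. Measure: GFP/RFP fluorescence ratio.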
UUG fidelity = alters start codon recognition fidelity in yeast; S. cerevisiae UUG-firefly luciferase reporter, luminescence/redox ratio; activity score, % at 18.7 µM; 350,000 compounds, 0.13% hits; AID 602363;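 active = replicate mean at a twofold rise or more, about +100% in these data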;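 note: firefly luciferase made from a UUG start codon reports start codon fidelity; reporter light over untreated wells divided by growth signal over untreated wells; some hits fall short of that in this replicate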
CSC inhib = blocks cancer stem cells; 300,000 compounds, 1.1% hits; inhibition, % at 7.5 µM; cancer stem cell-like cells viability, luminescence;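 active = mean at 75% or more and at least half the replicates too; tested in HMLE shEcad cells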;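 note: 0% = median of negative and 100% = median of positive control wells; the first replicate is given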
eIF4H inh = inhibitors of RNA binding by human eIF4H; Q15056; eIF4H fluorescence polarization binding assay; inhibition, % at 35 µM; 290,000 compounds, 0.94% hits; AID 2012;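 active = 50% or more with normal probe brightness, or confirmed in later tests; about a fifth of its hits are not listed in these tables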;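 note: calls also rest on retests at 20 µM and on dose response follow-up; 0% = protein and probe with vehicle and 100% = probe without protein; strong numbers were not always called active; many hits fall short of the cut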
PABP FP inh = PABP-poly(A) binding inhibition; inhibition, % at 35 µM; P11940; PABP-poly(A) RNA binding, fluorescence polarization; 290,000 compounds, 1% hits;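 active = 50% or more with normal probe brightness, or confirmed in later tests; about a fifth of its hits are not listed in these tables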;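 note: calls also rest on retests at 20 µM and on dose response follow-up; controls were probe without protein and protein plus probe with vehicle; some compounds called inactive have numbers as strong as hits; many hits fall short of the cut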
Target sequence (P11940 whole entry, looked up): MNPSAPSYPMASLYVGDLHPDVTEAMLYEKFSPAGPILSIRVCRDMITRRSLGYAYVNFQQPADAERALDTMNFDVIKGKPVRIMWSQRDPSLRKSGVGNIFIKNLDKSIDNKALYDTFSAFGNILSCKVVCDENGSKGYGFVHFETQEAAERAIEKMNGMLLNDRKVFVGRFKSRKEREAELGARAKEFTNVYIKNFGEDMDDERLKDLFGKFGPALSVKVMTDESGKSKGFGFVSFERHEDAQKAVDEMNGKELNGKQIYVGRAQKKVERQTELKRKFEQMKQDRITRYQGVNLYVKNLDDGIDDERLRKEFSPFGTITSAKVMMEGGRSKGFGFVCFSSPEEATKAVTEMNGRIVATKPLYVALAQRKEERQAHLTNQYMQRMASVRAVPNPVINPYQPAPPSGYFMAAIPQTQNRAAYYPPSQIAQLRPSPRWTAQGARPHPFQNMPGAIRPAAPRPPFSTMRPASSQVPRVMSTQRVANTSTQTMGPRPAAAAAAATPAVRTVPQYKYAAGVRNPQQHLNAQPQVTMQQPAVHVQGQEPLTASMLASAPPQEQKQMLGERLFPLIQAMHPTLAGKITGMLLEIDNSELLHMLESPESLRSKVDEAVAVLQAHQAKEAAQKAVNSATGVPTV
Rce1 inhib = yeast Ras-converting enzyme inhibition; 290,000 compounds, 0.27% hits; AID 2563; calls only; yeast membranes, quenched prenylated peptide cleavage fluorescence;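 active = fall in fluorescence gain of 50% or more versus controls, with final raw signal at or below 3038400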;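 note: plate controls were neutral control wells for no effect and wells lacking membranes for full effect; tested at 10 µM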
eIF4H inh retest = recorded beside eIF4H inh, whose call it bears; inhibition, %; compound at 20 µM; confirmation average;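 mean of two retest wells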
PABP FP inh retest = recorded beside PABP FP inh, whose call it bears; inhibition, %; compound at 20 µM; confirmation repeats;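 mean of two retest wells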
MT1-MMP act inh RFP = further read-out of MT1-MMP act inh, marked with its call; RFP signal change, %; measured here: RFP expression control read;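 0 = vehicle wells; hits needed this value within 50% of zero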
Starred values were filed as active, the others as inactive; i = inactive; nt = not tested or not shown; & = joins results of further samples.

The first 13 records, ahead of the listing:
SMILES	Env fusion inh	MT1-MMP act inh	MT1-MMP act inh RFP	UUG fidelity	CSC inhib	eIF4H inh	PABP FP inh	Rce1 inhib	others
O=C(Cn1[nH]c(=O)c2ccccc2c1=O)OCC(=O)N1CCc2ccccc2C1	-72.8	9.4	7.1	nt	3.4	-7.7	-2.4	i
CCCCCCC[N+](CC)(CC)CCCCc1ccc(Cl)cc1	6.5	-3.2	-30.3	-5.9	6.9	nt	nt	nt
Cc1ccc(CNC(=O)Cn2cnc(S(=O)(=O)N3CCC(C)CC3)c2)o1	41.3	1.7	2.0	-8.6	-5.8	-1.1	3.9	i
COc1ccccc1CCC(=O)N(C)C1CCCN(Cc2ccccc2F)C1 (stereo not given)	-14.4	-4.5	0.1	-13.1	-3.1	-7.4	5.1	i
CCCCCN(C(=O)CCC(=O)OCC(=O)Nc1cccc(SC)c1)c1c(N)n(CCCC)c(=O)[nH]c1=O	7.4	8.0	1.7	nt	9.5	nt	nt	i
COc1ccc(CC/C(=N\O)C2(O)CCCCC2)cc1	-25.7	3.4	2.2	-0.5	-2.2	4.7	1.6	i
Cc1onc(-c2ccccc2)c1C(=O)N1CCN(C)CC1	-20.6	-3.3	3.3	-22.9	nt	0.6	-2.4	i
CN(C)/C=N/c1nc2nccc(-c3ccc(Cl)cc3)n2n1	14.1	0.0	-1.5	nt	-9.1	-5.1	8.7	i
COc1cccc(CNC(=O)CN2CCC(c3nc4ccc(C)cc4[nH]3)CC2)c1	-406.4	1.3	2.4	nt	-5.0	-1.2	-11.9	i
COc1cc(SC)ccc1C(=O)Nc1ccccc1	i	-0.8	2.3	-15.0	-3.8	-3.0	10.1	i
COC(=O)CCS(=O)(=O)c1ccc(Cl)cc1	nt	5.6	5.4	nt	8.1	-7.2	12.3	i
O=C(COC(=O)/C=C/c1ccc(Cl)cc1)NC(=O)NCc1ccccc1	-2.7	16.2	3.8	-2.0	nt	nt	nt	nt
CCNC(=S)Nc1ccc(S(=O)(=O)Nc2cc(C)nc(C)n2)cc1	-15.8	-1.7	-1.1	-30.0	-2.3	-2.7	-3.5	i

Main list, repeating the preview:
SMILES	Env fusion inh	MT1-MMP act inh	MT1-MMP act inh RFP	UUG fidelity	CSC inhib	eIF4H inh	PABP FP inh	Rce1 inhib	others
O=C(Cn1[nH]c(=O)c2ccccc2c1=O)OCC(=O)N1CCc2ccccc2C1	-72.8	9.4	7.1	nt	3.4	-7.7	-2.4	i
CCCCCCC[N+](CC)(CC)CCCCc1ccc(Cl)cc1	6.5	-3.2	-30.3	-5.9	6.9	nt	nt	nt
Cc1ccc(CNC(=O)Cn2cnc(S(=O)(=O)N3CCC(C)CC3)c2)o1	41.3	1.7	2.0	-8.6	-5.8	-1.1	3.9	i
COc1ccccc1CCC(=O)N(C)C1CCCN(Cc2ccccc2F)C1 (stereo not given)	-14.4	-4.5	0.1	-13.1	-3.1	-7.4	5.1	i
CCCCCN(C(=O)CCC(=O)OCC(=O)Nc1cccc(SC)c1)c1c(N)n(CCCC)c(=O)[nH]c1=O	7.4	8.0	1.7	nt	9.5	nt	nt	i
COc1ccc(CC/C(=N\O)C2(O)CCCCC2)cc1	-25.7	3.4	2.2	-0.5	-2.2	4.7	1.6	i
Cc1onc(-c2ccccc2)c1C(=O)N1CCN(C)CC1	-20.6	-3.3	3.3	-22.9	nt	0.6	-2.4	i
CN(C)/C=N/c1nc2nccc(-c3ccc(Cl)cc3)n2n1	14.1	0.0	-1.5	nt	-9.1	-5.1	8.7	i
COc1cccc(CNC(=O)CN2CCC(c3nc4ccc(C)cc4[nH]3)CC2)c1	-406.4	1.3	2.4	nt	-5.0	-1.2	-11.9	i
COc1cc(SC)ccc1C(=O)Nc1ccccc1	i	-0.8	2.3	-15.0	-3.8	-3.0	10.1	i
COC(=O)CCS(=O)(=O)c1ccc(Cl)cc1	nt	5.6	5.4	nt	8.1	-7.2	12.3	i
O=C(COC(=O)/C=C/c1ccc(Cl)cc1)NC(=O)NCc1ccccc1	-2.7	16.2	3.8	-2.0	nt	nt	nt	nt
CCNC(=S)Nc1ccc(S(=O)(=O)Nc2cc(C)nc(C)n2)cc1	-15.8	-1.7	-1.1	-30.0	-2.3	-2.7	-3.5	i
CN(C(=O)c1cccc(NC(=O)Cc2ccc(NC(=O)C3CCN(C(=O)c4ccccc4)CC3)cc2)c1)C1CCCC1	16.5	-8.0	-3.6	-1.8	nt	nt	nt	nt
COc1ccc2cc3c(N)nn(C(=O)Cc4c[nH]c5ccccc45)c3nc2c1	90.2*	-25.2	-11.9	nt	50.7	-0.5	6.8	i
O=C(O)/C=C/C(=O)NCCCc1ccccc1	0.3	-0.7	-2.3	nt	-11.4	0.0	-9.1	i
Cc1ccc(-n2c(C)nc3ccsc3c2=O)cc1	25.1	3.3	8.0	-8.1	-8.6	nt	nt	i
Cc1cc(OCC(=O)Nc2ccc(F)c(F)c2)nc(C(C)C)n1	nt	-0.8	4.4	nt	-2.5	-4.3	-11.5	i
CCc1ccc2c(CN3CCc4cc(OC)c(OC)cc4C3)cc(=O)oc2c1	26.7	1.2	-4.8	-2.3	0.2	3.3	-13.3	i
Cc1ccc(-n2ncc3c2CC(C)(C)CC3NC(=O)CCc2cccnc2)cc1 (stereo not given)	-5.4	7.1	-5.0	-18.4	2.5	-7.4	-14.6	i
CN(C)CCNc1nc(-c2ccccc2CO)c2sccc2n1	-16.4	-4.0	1.4	-12.2	nt	nt	nt	nt
Cc1ccc(/C=C/C(=O)NCCc2ccccc2)o1	-189.4	-4.9	3.5	-19.5	75.3*	-0.3	9.9	i
Cc1cccc(C)c1NC(=O)C(Cl)C(=O)c1ccccc1 (stereo not given)	-21.3	-3.1	5.6	-16.8	10.7	-9.3	12.4	i
COc1ccc(NS(=O)(=O)c2cc3c(cc2C)N(C(C)=O)CCO3)cc1	-14.7	-1.5	2.2	-5.2	11.0	30.1	8.0	i
CSc1nc(C)cc(C)c1C(N)=O	nt	-0.5	3.9	-19.1	-12.0	-7.9	-4.6	i
Cn1nnnc1SCC(=O)Nc1sccc1C(N)=O	-4.2	-5.5	4.6	-22.7	-11.4	nt	nt	nt
Cc1c(C(=O)O)sc(=S)n1-c1ccccc1	-98.7	-0.5	-0.2	-0.6	-5.8	-8.5	2.4	i
Clc1ccccc1NN(Cc1ccccn1)c1ccccc1Cl	22.2	-1.6	-3.8	-44.2	nt	nt	nt	nt
CC(C)(C)c1cnnn1-c1ccc(NC(=O)c2ccc3c(c2)OCO3)cc1	11.0	0.8	-2.4	nt	-6.9	-5.2	-2.5	i
O=S(=O)(c1cccc(C(F)(F)F)c1)N1CCCC1c1cccnc1 (stereo not given)	21.8	0.9	-2.4	nt	-10.2	-2.6	1.8	i
O=C(CSc1nc2ccccc2[nH]1)Nc1nc(-c2ccccc2)c(-c2ccccc2)o1	17.1	7.7	0.2	nt	0.5	5.6	3.6	i
CCOC(=O)c1[nH]c(C)c(C(=O)OCC(=O)N2c3ccccc3CC2C)c1C (stereo not given)	nt	-9.8	-7.9	-11.4	5.1	4.3	0.5	i
COC(=O)CCCCC1SCC2NC(=O)NC21 (stereo not given)	0.6	-1.6	1.2	nt	1.8	2.3	4.7	i
c1ccc(-c2noc(-c3cccc4ccccc34)n2)cc1	nt	-2.6	-0.1	-18.2	-12.4	-9.2	-5.4	i
COc1ccc(N2C(=O)CC(N3CCC(O)(c4ccc(Cl)cc4)CC3)C2=O)cc1 (stereo not given)	15.9	1.8	0.8	-10.9	-4.0	-7.1	-11.6	i
CC(Sc1ccccc1)C(=O)N1CCN(S(=O)(=O)c2ccccc2)CC1 (stereo not given)	16.1	-4.5	1.0	-1.1	14.6	-3.1	5.8	i
COc1ccc(-c2[nH]ncc2C=O)cc1OC	3.1	1.9	3.9	1.3	-0.4	1.1	-4.2	i
O=C(CCSc1ccccc1)N1CCN(C(=O)c2ccco2)CC1	nt	-1.3	-6.4	-8.6	-8.8	-7.2	5.9	i
Cc1cnn(C(=S)NCCc2ccccc2)c1	-17.7	2.0	9.5	-23.0	2.6	-12.6	4.4	i
CC1(C)CC(=O)C2=C(C1)N(c1ccccc1)C(=O)CC2c1ccc(O)cc1 (stereo not given)	-14.8	-0.6	1.7	nt	-9.7	2.1	2.0	i
O=C1CC2(CCCC2)C(=O)N1CN1CCN(S(=O)(=O)c2ccc(F)cc2F)CC1	-3.4	1.6	-1.4	-1.8	-4.6	nt	nt	nt
CSc1ccc(S(=O)(=O)N2CCC(C(=O)NCc3ccco3)CC2)cc1	5.1	-4.4	-0.8	-10.3	0.5	11.4	-6.0	i
O=C(c1cccs1)N(c1cccc(Cl)c1)C1C=CS(=O)(=O)C1 (stereo not given)	2.2	-11.3	-1.8	nt	-8.5	3.2	12.7	i
CCS(=O)(=O)c1ccc(O)c(NC(=O)c2ccc(S(=O)(=O)N3CCCCCC3)cc2)c1	2.3	5.4	0.9	0.8	-11.2	nt	nt	nt
COC(=O)Cc1c(C)nc2nc(NCc3ccccc3OC)[nH]n2c1=O	nt	3.1	-1.8	nt	-13.3	-3.7	-1.5	i
COc1ccc(Nc2ccc(N3C(=O)CC(C)C3=O)cc2[N+](=O)[O-])cn1 (stereo not given)	15.2	3.8	-4.2	nt	3.0	74.5	2.6*	i	eIF4H inh retest=28.0;PABP FP inh retest=60.4*
Cc1ccc(/C=N/n2c(-c3ccncc3)n[nH]c2=S)cc1	47.0	-0.6	4.7	nt	nt	1.9	96.3	i	eIF4H inh retest=-6.5;PABP FP inh retest=16.6
CCc1ccc(-n2c(=O)c3ccccc3n(CC(=O)NCc3ccco3)c2=O)cc1	-16.5	-2.8	2.6	-13.5	14.4	21.1	-10.3	i
COc1ccc2nc(C)cc(SCC(=O)O)c2c1	-75.4	3.7&2.8	0.7&1.7	-12.4&-18.9	-7.0&-20.0	2.2&1.4	16.6&-5.8	i
Cc1ccccc1N1C(=S)NC2c3ccccc3OC1(C)C2C(=O)N(C)C (stereo not given)	34.7	-2.9	-0.8	-18.9	-3.9	-5.1	-1.0	i
C=CCN(c1ccc(C(=O)Nc2ccc(NC(C)=O)cc2)cc1)S(C)(=O)=O	7.5	5.1	2.4	-22.8	nt	0.1	-1.3	i
O=C(Nc1ccc(N2CCN(C(=O)c3ccccc3)CC2)cc1)c1ccc([N+](=O)[O-])o1	i	-12.2	-32.2	nt	nt	36.0	5.7	i
COc1ccc(CC(=O)O)cc1O	22.7	-1.0	4.8	-17.4	-7.3	6.6	6.5	i
CC(C)CN1CCN(Cc2nc(C(C)C)cs2)CC1CCO (stereo not given)	1.3	-2.3	-1.0	nt	11.2	5.4	3.3	i
CCc1nnc(N2C(=O)c3ccccc3C2(O)c2ccccc2)s1 (stereo not given)	-6.9	0.1	7.0	-10.7	-18.9	-5.2	-11.0	i
COc1ccc(Cl)cc1C(=O)CSc1nnnn1C	-3.0	-2.2	-0.1	nt	73.4	-7.1	-10.6	i
CN(C)CCCNc1c2ccccc2nc2ccccc12	-83.7	-41.5	-24.2	11.3	130.8*	2.8	50.5	i	eIF4H inh retest=-2.8;PABP FP inh retest=46.2
COc1ccc(OC)c(C(=O)c2ccc(C(=O)N3CCN(Cc4csc(C)n4)CC3)cc2)c1	10.9	2.1	-5.0	nt	-4.1	-8.5	-4.5	i
